Screening data deposited in PubChem BioAssay by National Center for Advancing Translational Sciences (NCATS).
miR-21 reporter: miR-21 reporter, rising signal | HeLa miR-21 FLuc reporter, luciferase, 48 h | Potency, µM (titrated, usually from 38.3 µM), for the others: top-dose reporter change, positive = more light | 340,000 tested, under 10 active | AID 2288; active = well fitted rising curve with a large enough effect; inconclusive = small, poorly fitted or top-dose-only effect; inactive = no such curve, though single readings can be large or run the other way;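 note: % of control where 0% means no effect; miR-21 action dims this reporter so a rising signal means less miR-21 action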
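HeLa cells stably expressing CMV-driven firefly luciferase with a downstream miR-21 binding sequence, endogenously expressing miR-21, were treated with titrations (up to about 40uM final) for 48 hours at 37 degree Celsius. Luciferase luminescence was read after lysis.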
Rango dissoc inh: prevents RanGTP from dissociating the Rango-importin beta complex. Biochemical FRET Rango-importin beta, RanGTP-induced dissociation. hit rate 0.071% among 340,000. AID 540253. Potency, µM (highest dose often 46.1 µM), for the others: at the highest dose activity change, negative = inhibition. O95149+P62826; active means falling FRET ratio curve, often poorly fitted, with flat reads before Ran was added; inconclusive means other falling curves, or compound fluorescence or quenching; inactive means flat or rising ratio curve;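 note: potency is the fitted concentration of half-maximal effect; % of control where 0% means no effect; nearly all actives have a fitted effect of over 45% in size; -100% = wells without RanGTP and RCC1; the record marks most hits as doubtful in a second field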
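Two FRET readings bracket the reaction: one 5 min after compound meets Rango–importin beta, another 45 min after RanGTP-RCC1 (0.6 uM Ran, 0.2 uM RCC1, 2 mM GTP) is added. Only the second defines inhibition.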
GLA inh pH 4.5: blocks human alpha-galactosidase A at pH 4.5. activity change, negative = inhibition, % at 105 µM. purified enzyme, 4-MU-alpha-Gal fluorescence, pH 4.5. 230,000 tested, under 10 active. AID 1467; inconclusive = small, poorly fitted or top-dose-only inhibition, or a rising curve; inactive = flat fitted curve, though single readings scatter; no compound was filed as active;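 note: 0% = full activity with enzyme and -100% = basal without enzyme; dose as in the result columns while the protocol names 77 µM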
Target sequence (P06280 whole entry, looked up): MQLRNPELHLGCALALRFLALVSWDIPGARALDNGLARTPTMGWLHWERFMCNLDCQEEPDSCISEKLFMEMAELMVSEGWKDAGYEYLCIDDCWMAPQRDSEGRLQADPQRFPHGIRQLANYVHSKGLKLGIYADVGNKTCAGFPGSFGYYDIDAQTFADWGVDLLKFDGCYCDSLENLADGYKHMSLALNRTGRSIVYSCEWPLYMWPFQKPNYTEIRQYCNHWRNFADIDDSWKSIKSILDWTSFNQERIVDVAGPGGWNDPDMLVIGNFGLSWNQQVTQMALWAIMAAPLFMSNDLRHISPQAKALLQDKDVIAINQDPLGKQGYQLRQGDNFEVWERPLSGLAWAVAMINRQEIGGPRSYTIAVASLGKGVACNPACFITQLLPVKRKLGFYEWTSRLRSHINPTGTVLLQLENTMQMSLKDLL
Rango-impB inh: Rango-importin beta binding inhibition; Q14974; Rango CFP/YFP FRET sensor + importin beta, 45 min; Potency, µM (titrated, usually from 92.2 µM), for inactives: top-dose inhibition of complex formation; hit rate 0.031% among 340,000; AID 540263; active = rising FRET ratio curve, often small or poorly fitted; inconclusive = mostly compound fluorescence or quenching in the first reads; inactive = flat curves in all reads;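 note: potency is the fitted concentration of half-maximal effect; 0% = DMSO wells and 100% = buffer wells lacking importin beta; nearly all actives have a fitted effect of over 15% in size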
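FRET biosensor (snurportin 1 IBB flanked by EYFP and cerulean), 50 nM, with compound 5 min, then 0.125 microM importin beta in PBS, 1 mM DTT, 0.02% Tween-20, 0.1% BSA. CFP/YFP ratio read after 45 min at room temperature; pre-read flags interference.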
* hit, by the source's call; & = joins results of further samples. This is a subset; count on the stated rates, not on these rows.

CCCc1nnc(NC(=O)CCS(=O)(=O)Cc2ccccc2)s1 was read as miR-21 reporter 0%, Rango dissoc inh 2% and Rango-impB inh 0.0%.
`O=C(CN1C(=O)c2ccc([N+](=O)[O-])cc2C1=O)Nc1nccs1` gave miR-21 reporter -2%, Rango dissoc inh 1%, GLA inh pH 4.5 0 and Rango-impB inh 1.1%.
`CCSc1oc(-c2cccs2)nc1S(=O)(=O)c1ccccc1` gave miR-21 reporter -3%, Rango dissoc inh -1%, GLA inh pH 4.5 -17 and Rango-impB inh -0.8%.
CCOC(=O)c1cccc(P(=O)(C(C)(C)C)C(C)(C)C)c1 was read as miR-21 reporter -4%, Rango dissoc inh -7%, GLA inh pH 4.5 3 and Rango-impB inh -2.5%.
For O=c1c2ccccc2nc(SCc2nnc(-c3ccccc3Br)o2)n1Cc1ccco1 the results were miR-21 reporter -11%, Rango dissoc inh 18%, GLA inh pH 4.5 1 and Rango-impB inh 0.3%.
CCN=c1scc(-c2ccco2)n1/N=C/c1ccc(OC)c(O)c1 was read as miR-21 reporter -43%, Rango dissoc inh -2%, GLA inh pH 4.5 -1 and Rango-impB inh 0.1%.
`c1ccc(CC(Cc2ccccc2)c2ccccn2)cc1` gave Rango dissoc inh -16% and Rango-impB inh 0.3%.
CC1CCCN1CC#CC(O)(c1ccccc1)c1ccccc1 (stereo unspecified) was read as miR-21 reporter -5%, Rango dissoc inh 14%, GLA inh pH 4.5 -5 and Rango-impB inh 3.3%.
`C/C(=N\NC(=O)C1CCCC1)c1ccc(Cl)cc1` gave miR-21 reporter -36%, Rango dissoc inh -8% and Rango-impB inh -0.4%.
`CCOC(=O)c1cnc2ccc(Br)cc2c1NCC(C)O` (stereo unspecified) gave miR-21 reporter -2%, Rango dissoc inh 44%, GLA inh pH 4.5 -10 and Rango-impB inh -0.1%.
For CCc1ccc(Nc2nnc(SCC(=O)NC(=O)c3cccn3C)s2)cc1 the results were miR-21 reporter 3%, Rango dissoc inh 13%, GLA inh pH 4.5 1 and Rango-impB inh -1.0%.
Screening COC/C=C/C1=CC2=CC(=O)C(C)(OC(=O)C3CCCC3)C(=O)C2=CO1 (stereo unspecified) returned miR-21 reporter 0%, Rango dissoc inh -21%, GLA inh pH 4.5 3&-1 and Rango-impB inh inconclusive.
Screening COc1ccc(OCCCC(=O)Nc2ncn[nH]2)cc1 returned miR-21 reporter -4%, Rango dissoc inh -7%, GLA inh pH 4.5 7 and Rango-impB inh -1.2%.
Screening CCn1c(SCC(=O)NCc2ccccc2)nnc1-c1c[nH]c2ccccc12 returned miR-21 reporter 0%, Rango dissoc inh -8%, GLA inh pH 4.5 0 and Rango-impB inh 2.4%.
CCN(CC)S(=O)(=O)c1cc(-c2nnc(-c3ccc(Br)cc3)o2)ccc1Cl was read as miR-21 reporter -5%, Rango dissoc inh 6%, GLA inh pH 4.5 2 and Rango-impB inh -0.1%.
CCOc1ccc(CCNC(=O)COC(=O)C2=NNC(=O)CC2)cc1OCC was read as Rango dissoc inh 1% and Rango-impB inh 4.5%.
For O=C(c1ccc(Cl)c(S(=O)(=O)N2CCCCC2)c1)N1CCCC1 the results were miR-21 reporter -5%, Rango dissoc inh -19% and Rango-impB inh 7.5%.
Screening Cc1ccc(N(Cc2cc3ccccc3[nH]c2=O)C(=O)c2cccs2)cc1C returned miR-21 reporter 0%, Rango dissoc inh -1%, GLA inh pH 4.5 -4 and Rango-impB inh 0.6%.
Screening O=C(NCCN1CCOCC1)c1ccc2c(c1)N(Cc1ccccc1)C(=O)CS2 returned miR-21 reporter -3%, Rango dissoc inh -16%, GLA inh pH 4.5 2 and Rango-impB inh 4.9%.
Cc1ccc(-c2nc3ccccn3c2Nc2ccccc2)o1 was read as miR-21 reporter -37%, Rango dissoc inh 0%, GLA inh pH 4.5 5 and Rango-impB inh -3.3%.
`COc1ccc(CCn2ccc(O)c(Cc3c(F)cccc3Cl)c2=O)cc1OC` gave miR-21 reporter 10%, Rango dissoc inh -3%, GLA inh pH 4.5 10 and Rango-impB inh 0.2%.
`O=c1[nH]cnc2nc3n(c12)CCCCC3` gave miR-21 reporter 2%, Rango dissoc inh -16%, GLA inh pH 4.5 11 and Rango-impB inh 5.5%.
`CC(=O)c1c(C)[nH]c(C(=O)COc2ccc(C#N)cc2)c1C` gave miR-21 reporter -1%, Rango dissoc inh -11%, GLA inh pH 4.5 2 and Rango-impB inh -0.5%.
For O=C(Nc1ccccc1)c1cccc(C(F)(F)F)c1 the results were miR-21 reporter -27%, Rango dissoc inh -2%, GLA inh pH 4.5 -4 and Rango-impB inh -0.4%.
For CC(C)n1nc(C(=O)OCC(=O)NCCc2ccc(S(N)(=O)=O)cc2)c2ccccc2c1=O the results were Rango dissoc inh 3% and Rango-impB inh -3.6%.
For Cc1cccc(NC(=O)CSc2nnc(-c3ccc(S(=O)(=O)N4CCCC4)cc3)o2)c1 the results were miR-21 reporter -10%, Rango dissoc inh 9%, GLA inh pH 4.5 -2 and Rango-impB inh -1.8%.
`COc1cccc2c1OCC([C@@H]1C[C@H]3CN(Cc4cccc(Cl)c4)C(=O)[C@]34CCCN14)=C2` gave miR-21 reporter 7%, Rango dissoc inh 0%, GLA inh pH 4.5 1 and Rango-impB inh 0.0%.
For CC(NC(=O)c1ccccc1)C(=O)N/N=C/c1ccco1 (stereo unspecified) the results were miR-21 reporter 4%, Rango dissoc inh 3% and Rango-impB inh 0.4%.
Screening C[C@@H](C(=O)CC(=O)OC(C)(C)C)[C@@H](O)c1ccccc1 returned miR-21 reporter 0%, Rango dissoc inh 2% and Rango-impB inh 4.7%.
For Cc1ccc(C(=O)Nc2ccc(OCc3ccccc3)cc2)cc1[N+](=O)[O-] the results were miR-21 reporter -5%, Rango dissoc inh 27%, GLA inh pH 4.5 8 and Rango-impB inh 3.3%.
`CCOC(=O)CSc1nnc(-c2ccccc2)c(=O)[nH]1` gave miR-21 reporter 5%, Rango dissoc inh 3%, GLA inh pH 4.5 4 and Rango-impB inh 6.2%.
`CCOC(=O)c1cnc2c(-c3ccccc3)cnn2c1N` gave miR-21 reporter -52%, Rango dissoc inh -8%, GLA inh pH 4.5 -1 and Rango-impB inh 0.4%.
CCCn1c(-c2ccc(OC)cc2)nc2ccccc21 was read as miR-21 reporter -24%, Rango dissoc inh -6%, GLA inh pH 4.5 -8 and Rango-impB inh -4.0%.
Cc1cc(=O)oc2cc(OCC(=O)Nc3cccnc3)ccc12 was read as Rango dissoc inh -1% and Rango-impB inh 0.4%.
CCCN1C2=NCCN2c2ccccc21 was read as miR-21 reporter -2%, Rango dissoc inh inconclusive, GLA inh pH 4.5 0 and Rango-impB inh -0.1%.
`COc1ccc(N2CCN(CC(O)COc3cc(C)ccc3C)CC2)cc1` (stereo unspecified) gave miR-21 reporter -6%, Rango dissoc inh -19% and Rango-impB inh 3.7%.
For CCn1c(C)cs/c1=N\S(=O)(=O)c1ccccc1 the results were Rango dissoc inh -3% and Rango-impB inh 0.0%.
For CCOc1cc(/C=N/NC(=O)c2cc3c(ccc4ccccc43)o2)ccc1O the results were miR-21 reporter 10%, Rango dissoc inh 0% and Rango-impB inh -1.1%.
CS(=O)(=O)N(CC(=O)NCCSc1ccccn1)c1cccc2ccccc12 was read as miR-21 reporter 0%, Rango dissoc inh 1%, GLA inh pH 4.5 -5 and Rango-impB inh -0.9%.
For COc1cccc(C2C(C(=O)OC(C)C)=C(C)Nc3ncnn32)c1 (stereo unspecified) the results were miR-21 reporter -4%, Rango dissoc inh 13%, GLA inh pH 4.5 -2 and Rango-impB inh 0.7%.
COC(=O)/C(C#N)=C/c1ccc(-c2ccc(S(N)(=O)=O)cc2)o1 was read as miR-21 reporter -4%, Rango dissoc inh inconclusive, GLA inh pH 4.5 3 and Rango-impB inh inconclusive.
`N#C/C(=C\Nc1ccc2c(c1)OCCO2)c1nc2ccccc2[nH]1` gave miR-21 reporter -18%, Rango dissoc inh inconclusive, GLA inh pH 4.5 -8 and Rango-impB inh inconclusive.
`CN(CC(=O)Nc1ccccc1Cl)C(=O)COC(=O)c1cc([N+](=O)[O-])ccc1N1CCOCC1` gave Rango dissoc inh 0% and Rango-impB inh 0.5%.
CC1=CC(=C(C#N)c2nc3ccccc3s2)C=C(C)N1CC1CCCO1 (stereo unspecified) was read as miR-21 reporter 3%, Rango dissoc inh inconclusive, GLA inh pH 4.5 -14 and Rango-impB inh inconclusive.
`CSc1cccc(NS(=O)(=O)c2ccc3c(c2)NC(=O)C(C)C(=O)N3)c1` (stereo unspecified) gave miR-21 reporter 0%, Rango dissoc inh 3% and Rango-impB inh 2.0%.
`COc1ccc2nc(C)cc(Nc3ccc(C(=O)O)cc3)c2c1` gave miR-21 reporter 4%, Rango dissoc inh 5% and Rango-impB inh 2.4%.
`Cc1ccc(S(=O)(=O)N2[C@@H](c3ccc4c(c3)OCO4)C(C(=O)O)=C[C@H]2CC2CCCC2)cc1` gave Rango dissoc inh 8% and Rango-impB inh 0.5%.
Screening O=C(COC(=O)CN1C(=O)c2ccccc2C1=O)Nc1ccccc1 returned Rango dissoc inh -1% and Rango-impB inh 3.5%.
Screening O=c1c2c3c(sc2n(CCN2CCCCC2)c(=O)n1Cc1ccco1)CCCCC3 returned miR-21 reporter 0%, Rango dissoc inh -2%, GLA inh pH 4.5 -6 and Rango-impB inh 6.6%.
For CCCCC(C(=O)O)C(C)CC(=O)Nc1ccn(-c2ccccc2)n1 (stereo unspecified) the results were miR-21 reporter -3%, Rango dissoc inh -1%, GLA inh pH 4.5 -7 and Rango-impB inh 0.8%.
Cn1c(CC(=O)Nc2ccccc2)nnc1SCC(=O)Nc1ccc(N2CCOCC2)cc1 was read as miR-21 reporter -23%, Rango dissoc inh -8% and Rango-impB inh -0.5%.
Screening COCc1c(C(=O)NCCOc2ccc(Cl)cc2)oc2ccccc12 returned Rango dissoc inh 0% and Rango-impB inh 2.6%.
Screening Cc1nn(CCCC(=O)N2CCN(c3ccc(F)cc3)CC2)c(C)c1[N+](=O)[O-] returned miR-21 reporter -2%, Rango dissoc inh 1%, GLA inh pH 4.5 -4 and Rango-impB inh -5.1%.
`Cc1ccccc1C(=O)NC(=S)Nc1ccccc1C(=O)O` gave miR-21 reporter -28%, Rango dissoc inh 1%, GLA inh pH 4.5 0 and Rango-impB inh 1.7%.
Screening Cc1cccc(NC(=S)N2CCN(c3ccccn3)CC2)c1 returned miR-21 reporter -1%, Rango dissoc inh -17% and Rango-impB inh -5.7%.
Screening Cc1ccc(-c2nc3ccccc3c(C(=O)NCc3cccs3)c2C)cc1 returned miR-21 reporter 1%, Rango dissoc inh -11%, GLA inh pH 4.5 4 and Rango-impB inh 0.2%.
Screening Cn1c(CN2CCOCC2)nnc1SCC(=O)Nc1cc(Cl)ccc1Cl returned miR-21 reporter 10%, Rango dissoc inh 2% and Rango-impB inh 4.8%.
`CCOC(=O)c1cnn(C)c1NC(=O)c1ccc([N+](=O)[O-])cc1` gave miR-21 reporter -2%, Rango dissoc inh -4% and Rango-impB inh 4.0%.
For N#Cc1nc(-c2ccc(F)cc2)oc1NCc1ccco1 the results were miR-21 reporter -57%, Rango dissoc inh -10%, GLA inh pH 4.5 -1 and Rango-impB inh -3.6%.
For CCCc1cc(C(=O)N/N=C/c2ccc(CC)s2)c2ccccc2n1 the results were miR-21 reporter 11%, Rango dissoc inh -1%, GLA inh pH 4.5 3 and Rango-impB inh -1.2%.
For O=C(CN1C(=O)NC2(CCc3ccccc32)C1=O)NCCc1ccccc1 (stereo unspecified) the results were Rango dissoc inh -6% and Rango-impB inh -0.9%.
